CtBP-E1A blk – qHTS Assay for Inhibitors of the CtBP/E1A Interaction. AlphaScreen GST-E1A/His-CtBP binding, 1536-well; stronger effect = lower value; control for the full effect not named in the record. 0.49% of 340,000 active. activity change, % (test concentration not listed); in the data active means activity change below about -65%; inconclusive means about -30% to -65%; inactive means above about -30%; further: on the % scale 0 is the no-effect control and ±100 the full control effect; compound concentration not given in the record
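Homogeneous bead-based format: GST-tagged E1A captured on glutathione donor beads, His-tagged CtBP on nickel acceptor beads; compounds precede bead addition by 2 h at 37 °C.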
TRPML1 agonist – qHTS for Agonists of the Human Mucolipin Transient Receptor Potential 1 (TRPML1). 0.12% of 410,000 active. activation, % (concentration not given with the values). AID 624414, 2012. TRPML1-expressing cells, Ca2+ dye fluorescence, FDSS; host cell line not named in the record; reference of the full effect not given here. Mucolipin-1 (Homo sapiens), Q9GZU1; in the data active = activation above about 50%; inconclusive = about 30% to 50%; inactive = below about 30%; further: 0% is about no effect; the text of the record puts the active cut at 80%
Target sequence (Q9GZU1 whole entry, looked up): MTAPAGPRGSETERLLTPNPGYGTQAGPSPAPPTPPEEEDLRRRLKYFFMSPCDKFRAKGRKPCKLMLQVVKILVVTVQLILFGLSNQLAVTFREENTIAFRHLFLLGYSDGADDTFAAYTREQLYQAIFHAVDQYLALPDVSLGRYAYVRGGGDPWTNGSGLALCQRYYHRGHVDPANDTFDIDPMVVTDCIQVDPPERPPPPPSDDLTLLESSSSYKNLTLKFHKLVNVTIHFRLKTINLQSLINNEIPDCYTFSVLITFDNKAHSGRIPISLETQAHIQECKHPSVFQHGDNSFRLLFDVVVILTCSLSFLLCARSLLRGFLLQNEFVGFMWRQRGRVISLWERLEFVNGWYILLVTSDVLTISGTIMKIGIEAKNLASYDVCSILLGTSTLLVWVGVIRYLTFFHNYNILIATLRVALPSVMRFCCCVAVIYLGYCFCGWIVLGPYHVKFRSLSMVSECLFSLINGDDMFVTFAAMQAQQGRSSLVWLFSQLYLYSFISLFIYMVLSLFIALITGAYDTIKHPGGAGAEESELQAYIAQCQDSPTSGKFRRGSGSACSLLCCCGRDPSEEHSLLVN
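Kinetic FDSS Ca2+ read in Tet-induced TRPML1-DL cells (ABD Ca8 dye plus quencher, 45-90 min RT loading): baseline, then compound, then 110 s agonist window; EC80 agonist 54-4 at 4uM final added afterwards for a 110 s antagonist window.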
D2 ag – Beta-Arrestin HTS for Positive Allosteric Modulators of the Human D2 Dopamine Receptor: Agonists; D(2) dopamine receptor (Homo sapiens), P14416; DiscoveRx PathHunter D2 beta-arrestin, luminescence, 90 min; 100% = 57 uM dopamine signal; activation, % (concentration not given with the values); 0.084% of 360,000 active; in the data active = activation above about 40%; inconclusive = about 15% to 40%; inactive = below about 15%; further: compound concentration not given in the record; the text of the record calls up to 30% inactive
Target sequence (P14416 whole entry, looked up): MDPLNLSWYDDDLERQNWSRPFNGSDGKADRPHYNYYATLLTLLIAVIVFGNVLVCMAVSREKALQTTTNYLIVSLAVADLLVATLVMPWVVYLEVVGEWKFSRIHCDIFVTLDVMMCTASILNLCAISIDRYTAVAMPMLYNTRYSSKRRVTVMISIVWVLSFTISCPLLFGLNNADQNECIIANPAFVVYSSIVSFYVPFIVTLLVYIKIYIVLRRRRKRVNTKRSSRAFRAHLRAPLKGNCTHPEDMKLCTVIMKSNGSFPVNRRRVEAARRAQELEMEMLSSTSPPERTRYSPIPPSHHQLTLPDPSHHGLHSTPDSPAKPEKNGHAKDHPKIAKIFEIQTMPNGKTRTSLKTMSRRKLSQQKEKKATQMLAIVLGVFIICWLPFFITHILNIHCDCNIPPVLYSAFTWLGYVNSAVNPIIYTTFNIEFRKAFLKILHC
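DiscoveRx PathHunter D2 beta-arrestin cells (2,100/well) attached overnight, then compound-stimulated 90 min at 37 C in HBSS/10 mM HEPES/0.1% Tween-20 buffer; beta-galactosidase complementation read by luminescence after 1 h at ambient temperature. Dopamine 57 uM final (EC100) as control.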
D2 potentiator – Beta-Arrestin HTS for Positive Allosteric Modulators of the Human D2 Dopamine Receptor: Potentiators; potentiation, % (test concentration not listed); DiscoveRx D2 beta-arrestin cells, luminescence, 90 min; 100% = 57 uM dopamine signal; 0.23% of 360,000 active; D(2) dopamine receptor (Homo sapiens), P14416; active = potentiation of 50% or more; inconclusive = 30% to 50%; inactive = 30% or less;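 further: compound concentration not given in the record; tested on top of an EC20 dose of dopamine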
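D2 cells co-treated with compound plus 50 nM dopamine (EC20) for 90 min at 37 deg C to detect potentiation. Beta-arrestin recruitment was read as enzyme-fragment luminescence after 1 h at ambient temperature. Full response was set by 57 uM dopamine.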
PINK1 expr mod – A Quantitative High throughput Screen to Identify Chemical Modulators of PINK1 Expression; PINK1 immunofluorescence, high-content cytometry, 24 h; Potency, µM (titrated, usually from 76.6 µM), without a hit: at the highest dose activation (PINK1 increase), usual class: activators; 0.2% of 410,000 active; active = well fitted activation curve with a large enough effect; inconclusive = small, poorly fitted or top-dose-only effect; inactive = flat fitted curve, though single readings scatter; cell line not stated here;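 further: potency means the concentration at half of the fitted maximal effect; % of control where 0% means no effect; nearly all actives have a fitted effect of over 65% in size; a mitochondrial uncoupler was the plate control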
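Stable cell line, 250 cells/well, 12 h attachment; compounds pinned at 5 concentrations, 24 h; CCCP control. Fixed with nuclear dye, primary antibodies 12 h at 10 degrees C, secondary plus cell stain; laser-scanning cytometer read.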
Six1-Eya2 blk – qHTS Assay for Inhibitors of the Six1/Eya2 Interaction; 0.56% of 360,000 active; AlphaScreen GST-Six1/His-Eya2 binding, biochemical; stronger effect = lower value; control for the full effect not named in the record; activity change, % (no concentration beside the values); Homeobox protein SIX1 (Homo sapiens) + Protein phosphatase EYA2 (Homo sapiens), …; in the data active = activity change below about -65%; inconclusive = about -30% to -65%; inactive = above about -30%; further: on the % scale 0 is the no-effect control and ±100 the full control effect; compound concentration not given in the record
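Six1/Eya2 binding was read as AlphaScreen signal after compounds were pinned into GST-Six1 plus His-tagged Eya2 (5X stock 250/500 nM) in pH 8.0 Tris/NaCl/TCEP buffer, beads added, then incubated 1 h, 37 C, dark.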
* marks the source's active call; other numbers are inactive results; ? = inconclusive; nt = no result given; [ ] = remark or other dose. No enrichment for hits (roughly 1.3% active in at least one column).

SMILES | CtBP-E1A blk | TRPML1 agonist | D2 ag | D2 potentiator | PINK1 expr mod | Six1-Eya2 blk
Cc1ccc([N+](=O)[O-])cc1S(=O)(=O)NCCc1cn2ccccc2n1 | -8 | -0.3 | -4.3 | -11 | 1.8% | -3
O=S(=O)(c1ccc(Cl)cc1)N1CCC(n2cnc3cc(C(F)(F)F)ccc32)CC1 | 9 | 0.0 | 0.6 | -5 | 4.9% | 4
COC(=O)[C@H](C)NC(=O)NCc1ccco1 | 4 | 0.5 | 3.7 | -1 | 2.6%[38.3 µM] | 6
CCCCn1c(N)c(N(Cc2ccccc2OC)C(=O)C(C)Oc2ccc(F)cc2)c(=O)[nH]c1=O (stereo not drawn) | 4 | 0.3 | -2.2 | 19 | -1.2% | 5
CC(C)(C)NC(=S)NC(=O)C12CCC3CC(CC(C3)C1)C2 | -1 | 1.1 | -2.2 | -1 | 24% | 3
CCCc1cc(=O)oc2c(C)c(OS(C)(=O)=O)ccc12 | 3 | 7.2 | -1.6 | -19 | -1.4% | 2
CCN(CC)C(=S)SC1CCCCN(C(=O)c2ccccc2)C1=O (stereo not drawn) | 6 | 0.8 | 0.8 | 1 | -0.6% | 5
COc1ccccc1N1CCN(C2CCCN(C(=O)c3ccoc3)C2)CC1 (stereo not drawn) | -18 | 0.0 | -3.9 | -21 | -0.6% | 2
COc1ccc(S(=O)(=O)NCc2ccco2)cc1C(=O)N1CCOCC1 | -3 | 0.0 | 1.3 | -2 | 1.7% | -4
CCOC(=O)N1CCc2cc(OC)c(OC)c3c2c1cc1cc(OC)c(OC)cc13 | -9 | 3.8 | 7.9 | -4 | -6.6% | -10

Five entries out of the list above, sorted by the value under CtBP-E1A blk, highest first.
Molecule | CtBP-E1A blk
CCCc1cc(=O)oc2c(C)c(OS(C)(=O)=O)ccc12 | 3
CC(C)(C)NC(=S)NC(=O)C12CCC3CC(CC(C3)C1)C2 | -1
COc1ccc(S(=O)(=O)NCc2ccco2)cc1C(=O)N1CCOCC1 | -3
Cc1ccc([N+](=O)[O-])cc1S(=O)(=O)NCCc1cn2ccccc2n1 | -8
CCOC(=O)N1CCc2cc(OC)c(OC)c3c2c1cc1cc(OC)c(OC)cc13 | -9

A few values from the entries so far:
Under CtBP-E1A blk, COc1ccc(S(=O)(=O)NCc2ccco2)cc1C(=O)N1CCOCC1 is entered as -3
Under D2 ag, CC(C)(C)NC(=S)NC(=O)C12CCC3CC(CC(C3)C1)C2 is entered as -2.2

More results:
SMILES | CtBP-E1A blk | TRPML1 agonist | D2 ag | D2 potentiator | PINK1 expr mod | Six1-Eya2 blk
Cc1ccccc1N1C(=O)N(c2cccc(C(F)(F)F)c2)C2CS(=O)(=O)CC21 (stereo not drawn) | 4 | 0.5 | -1.0 | -18 | -0.9% | 7
Cc1ccc([N+](=O)[O-])cc1N/C=C/C(=O)c1ccco1 | -25 | 0.8 | -0.3 | -2 | 2.1%[38.3 µM] | -24
COc1cc(OC)cc(C(=O)NNC(=O)c2cc(=O)[nH]c3ccccc23)c1 | 10 | -0.8 | -4.5 | -31 | -0.7% | 1
C=CC(C)(C)c1[nH]cnc1/C=C1\NC(=O)C(C(C)C)NC1=O (stereo not drawn) | 4 | -0.4 | 1.1 | 1 | 8.5% | 3
Cn1c(=O)oc2cc(S(=O)(=O)Nc3cccc([N+](=O)[O-])c3)ccc21 | -14 | 0.7 | -4.7 | -4 | -1.1% | 1
CS(=O)(=O)N(Cc1ccc(Cl)cc1)c1ccc(C(=O)NCCSc2ccccn2)cc1 | 2 | 2.7 | -1.5 | -1 | -4.5% | 9
O=C1c2ccccc2C(c2nnnn2-c2ccc3c(c2)OCCO3)N1Cc1ccccc1 (stereo not drawn) | 2 | 1.2 | nt | nt | 4.8% | -6
Cc1ccccc1/C=N/Nc1ccnc2cc(Cl)ccc12 | 15 | -0.9 | ? | -31 | -0.8% | -5
COc1ccc(CCNC(=O)C2CCN(S(=O)(=O)c3ccc(C)cc3)CC2)cc1OC | -10 | 0.1 | -6.4 | -4 | 0.5% | 3
CCOc1ccccc1OCC(=O)OCC(=O)Nc1ncc(Cl)cc1Cl | 0 | -0.7 | -2.2 | -21 | 0.9% | -1
O=C(COc1ccc2c3c(c(=O)oc2c1)CCC3)NCc1cccnc1 | 2 | -0.9 | 0.3 | 1 | -0.6% | 2
O=C(C1=C[C@@H](c2csc3ccccc23)C[C@@H](OCc2ccc(CO)cc2)O1)N1CCOCC1 | 2 | 0.9 | -1.6 | -14 | -0.4% | -5
Cc1cc(C)n(CCC(=O)N=Nc2c(O)[nH]c3ccccc23)n1 | 3 | nt | -5.6 | -4 | 0.3% | 4
COC(=O)C1CN(C(=O)C(C)Oc2ccc(C(C)C)cc2)c2ccccc2O1 (stereo not drawn) | nt | 2.6 | 4.3 | -5 | 1.6% | 4
O=C(Nc1ccc(N2CCOCC2)cc1)c1ccc2nc(-c3ccco3)c(-c3ccco3)nc2c1 | -2 | 0.1 | 1.2 | 5 | ? | -7
Cc1ccccc1OCC(=O)Nc1ccc(N2CCN(C)CC2)c(Cl)c1 | -6 | 0.9 | -3.9 | -4 | 9.7% | -3
Cc1nn(C)cc1S(=O)(=O)Nc1cccc(Cl)c1 | 0 | 1.0 | -2.2 | 2 | 0.0% | 8
Cc1cc(C(=O)COC(=O)Cc2c(F)cccc2Cl)c(C)n1C | 10 | -0.8 | 0.7 | 2 | 1.0% | -5
CCC(C)c1ccc(OCC(=O)Nc2ccc(CN3CCOCC3)cc2)cc1 (stereo not drawn) | 9 | 0.0 | -2.7 | -12 | -0.3% | -2
C/C(N)=C(/C#N)C(=O)COc1ncnc2ccccc12 | 8 | 0.2 | 1.1 | 7 | -0.8% | 1
CCN(CC(=O)Nc1c(F)cccc1F)C(=O)c1ccc(Sc2nncn2C)c([N+](=O)[O-])c1 | 8 | -0.5 | 2.9 | -7 | 1.8% | 0
CC(=O)O[C@H](CC(=O)O)C[N+](C)(C)C | 12 | -0.6 | -2.6 | 6 | 0.8% | 4
Cc1ccc(Cn2nnc3c(=O)n(Cc4ccccc4C)cnc32)cc1 | -8 | -0.1 | 1.2 | -3 | 4.4% | 0
COc1cccc(C2NC(=O)NC(C)=C2C(=O)OCCSC)c1OC (stereo not drawn) | 16 | 0.1 | -1.6 | 6 | -1.4%[38.3 µM] | 4
Cc1ccc(C(C)C)cc1OCC(=O)Nc1ccc(N2CCCCC2)cc1 | -20 | 0.4 | -1.9 | 0 | 3.0% | ?
CC(C)CNS(=O)(=O)c1ccc(S(=O)(=O)N2CCCN(Cc3ccccc3)C2)cc1 | -1 | 0.6 | -1.7 | -3 | -4.2%[38.3 µM] | -1
CC1(C(=O)NS(=O)(=O)c2ccccc2Cl)CCN1C(=O)CCc1cccs1 (stereo not drawn) | 33 | 0.1 | -7.0 | 2 | 1.0% | 22
COc1ccc(CCNC(=O)c2cccnc2SC)cc1 | 7 | 0.8 | -23 | 5 | 0.5% | 0
Cc1ccc(S(=O)(=O)n2ccc(=O)[nH]2)cc1 | 2 | -0.5 | -4.0 | -9 | 0.1% | 2
Cc1cc(C)nc(SCC(=O)Oc2ccc3oc(=O)cc(C)c3c2)n1 | 3 | -0.4 | -1.7 | -2 | 1.8% | 5
CC1(C)CC(=O)C(C=Nc2ccc(C(=O)c3ccccc3)cc2N=CC2=C(O)CC(C)(C)CC2=O)=C(O)C1 | -7 | 23 | -15 | -30 | 4.4% | 10
COC(=O)[C@@]1(Cc2ccc(F)cc2)[C@H]2c3cc(C(=O)N(C)C)n(Cc4nc5ccccc5[nH]4)c3C[C@H]2CN1C(=O)c1ccccc1 | -8 | 1.3 | 0.9 | -24 | -0.6% | -19
Nn1cc(-c2ccccc2)nc1SCC(=O)NCCN1C(=O)CSC1=O | -4 | 0.1 | -2.6 | 4 | -2.2% | 3
COC(=O)[C@]1(CC(C)C)N[C@H](c2ccc(-c3ccc(C(C)=O)cc3)cc2)[C@@H]2C(=O)N(C)C(=O)[C@@H]21 | nt | 0.2 | -2.3 | 3 | 1.6% | -1
CCc1cccc(NS(=O)(=O)c2ccc3c(c2)NC(=O)CC(=O)N3)c1 | nt | 0.2 | 2.7 | -3 | -3.4% | 2
Cc1cc(=O)[nH]c(SCC(=O)Nc2ccc(N3CCCCC3)cc2)n1 | nt | -1.3 | -3.2 | -7 | 5.9% | -6
O=C1OCCN1C(=O)[C@H]1[C@H](c2ccc(F)cc2)C(c2cccc(Cl)c2)=NN1c1ccccc1 | 50 | 0.9 | -2.8 | -4 | -0.6% | 45
CCOC(=O)c1sc(=S)n(-c2ccccc2OC)c1N | -9 | -0.3 | -4.3 | -7 | -0.6% | -21
COc1cc2c(cc1OC)C(C)N(C(=O)c1cccs1)CC2 (stereo not drawn) | 3 | -1.0 | -1.3 | 5 | 2.2% | 1
Cc1sc(=NC(=O)c2ccco2)n(C)c1-c1ccc(F)cc1 | -3 | -0.1 | -1.1 | -12 | 1.0% | -4
CCOc1ccc(C(=O)COC(=O)c2c(-c3ccccc3)noc2C)cc1 | 8 | 1.1 | -3.1 | 0 | -0.4% | 1
Cc1ccc(CNC(=O)CCn2c(=O)oc3ccccc32)cc1 | 2 | nt | -3.8 | -12 | 1.3% | 3
O=C(O)c1ccc(C(=O)Nc2cccc3ccccc23)c(C(=O)O)c1 | nt | -0.6 | -6.2 | -21 | 1.9% | 10
Cn1cc(Br)c(C(=O)Nc2nccs2)n1 | -2 | 0.3 | 4.3 | 1 | -2.0% | -7
Cc1nc(-c2ccccc2)sc1-c1nnc(C2CC2)o1 | -17 | 2.4 | 2.3 | -23 | 3.4% | 10
Cc1cccc(NC(=O)c2cc(-c3ccco3)nc3ccccc23)n1 | 5 | 0.3 | ? | 3 | 22% | 2
COc1ccc(N(CC(=O)NCCc2ccccc2)C(=O)c2csnn2)cc1OC | 5 | 2.5 | 4.3 | -6 | 0.6% | 11
O=C(Nc1c(F)c(F)c(F)c(F)c1F)c1ccc(Br)o1 | 5 | -1.0 | -4.9 | -16 | 1.8% | 31
O=C1C2C3c4ccccc4C(c4ccccc43)C2C(=O)N1Cc1ccco1 (stereo not drawn) | -6 | 2.6 | 0.8 | -22 | 12% | -2
NS(=O)(=O)c1ccc(CCNC2CC(=O)N(Cc3ccccc3)C2=O)cc1 (stereo not drawn) | 4 | -0.5 | 0.1 | -1 | nt | -1
CCN(CC)CCCNC(=S)N(Cc1cccnc1)Cc1cc2cc(C)ccc2[nH]c1=O | -4 | 0.7 | -3.7 | -23 | -1.3% | 0
CCOC(=O)C1CCCN(C(=O)c2cc3c(-c4cccc(OC)c4)nn(C)c3s2)C1 (stereo not drawn) | -4 | 2.2 | -2.5 | 2 | 3.9% | -11

Compound activity as filed in PubChem.
